Assay outcomes deposited in PubChem by Broad Institute.
HepG2 viability: viability loss in HepG2 hepatoma cells – cell-based, ATP luminescence, cherry-pick, activator set 2, cytotoxicity control, dose response (AID 1053143); HepG2 viability, CellTiter-Glo ATP luminescence, 72 h; activity change, negative = cytotoxicity, % at the top dose, mostly 26 µM; hits show AC50 in µM; 3,400 tested, 3.7% active;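 active = fitted AC50 at most twice the highest valid dose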;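 note: 0 = neutral control and -100 = positive control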
* = called active by the depositor; [ ] = dose if it differs, or a comment.

For CC(=O)c1ccc(NC(=O)c2ccn(C(=O)OCC(C)C)n2)cc1 the results were HepG2 viability -22.6%.
N/C(=N\OC(=O)Cc1cccc2ccccc12)c1ccccn1 was read as HepG2 viability -5.4%.
For CC(C)(C)CC(=O)Nc1nnc(-c2cccs2)s1 the results were HepG2 viability -0.3%.
Screening COc1ccccc1-c1nc(-c2ccc(C)nc2OC)no1 returned HepG2 viability -14.2%.
Screening CN(CCO)C(=O)c1ccc(-c2nn(C)c(=O)c3ccccc23)cc1 returned HepG2 viability 53.3%.
`Cc1ccc(NC(=O)C2=NNC(=O)CC2)cc1F` gave HepG2 viability -11.0%[12 µM].
`O=C1c2ccccc2S(=O)(=O)N1CC1CC(c2ccc(Cl)cc2)=NO1` (centres undefined) gave HepG2 viability 2.2%.
For COc1ccccc1C1=NC(c2ccc(C)cc2)N=C1C (centres undefined) the results were HepG2 viability -10.1%.
Screening O=C(Nc1ccc(Cl)cc1Cl)c1ccc2c(=O)n3c(nc2c1)CCC3 returned HepG2 viability -10.1%.
Screening O=Cc1ccc(-c2nc3ccccc3s2)o1 returned HepG2 viability -6.3%.

The list goes on, starting with the last seven of the part before.
Screening COc1ccccc1-c1nc(-c2ccc(C)nc2OC)no1 returned HepG2 viability -14.2%.
Screening CN(CCO)C(=O)c1ccc(-c2nn(C)c(=O)c3ccccc23)cc1 returned HepG2 viability 53.3%.
`Cc1ccc(NC(=O)C2=NNC(=O)CC2)cc1F` gave HepG2 viability -11.0%[12 µM].
`O=C1c2ccccc2S(=O)(=O)N1CC1CC(c2ccc(Cl)cc2)=NO1` (centres undefined) gave HepG2 viability 2.2%.
For COc1ccccc1C1=NC(c2ccc(C)cc2)N=C1C (centres undefined) the results were HepG2 viability -10.1%.
Screening O=C(Nc1ccc(Cl)cc1Cl)c1ccc2c(=O)n3c(nc2c1)CCC3 returned HepG2 viability -10.1%.
Screening O=Cc1ccc(-c2nc3ccccc3s2)o1 returned HepG2 viability -6.3%.
For COc1cc(OC)cc(C(=O)OCC(=O)NCc2ccco2)c1 the results were HepG2 viability -0.1%.
`CCOC(=O)c1sc(NC(=O)c2sccc2C)cc1C` gave HepG2 viability 12.8µM*.
Screening Cn1c(=NC(=O)c2cnccn2)sc2ccccc21 returned HepG2 viability -11.9%.
O=C(CCCC(=O)c1ccc(O)cc1)c1ccc(O)cc1 was read as HepG2 viability -5.6%.
CC(=Nc1ccc(C)cc1)c1sc2ccccc2c1O was read as HepG2 viability -3.9%.
For O=C(NC1CCCCC1)c1ccc(-c2cccc([N+](=O)[O-])c2)o1 the results were HepG2 viability -12.4%.
Screening CCOc1cc(/C=N/NC(=O)CSc2nnc(C)s2)ccc1OCc1ccccc1Cl returned HepG2 viability 8.4%.
O=C(Nc1ccc2c(c1)OCCO2)c1cncc(Br)c1 was read as HepG2 viability -5.5%.
For Cc1ccc(NC(=O)c2noc3c2CCC3)cc1C the results were HepG2 viability -7.1%.
Screening Cc1ccc(C(=O)Nc2ccc3c(c2)OCO3)cc1Cl returned HepG2 viability -18.4%.
CC(=O)N1N=C(c2ccccc2)CC1c1cn(C)c2ccccc12 (centres undefined) was read as HepG2 viability 38.2%.
Cc1cc2sc3nc(=O)n(-c4ccccc4)c(=O)n3c2cc1C was read as HepG2 viability 13.5%.
`O=C(Nn1c(SCc2cccc([N+](=O)[O-])c2)nc2ccccc2c1=O)c1ccccc1` gave HepG2 viability -5.4%.
Screening COc1ccc(N=Cc2c(O)c3ccccc3n2C(C)=O)cc1 returned HepG2 viability -0.2%.
`CCC1CCC(NC(=O)Nc2cccc(OC)c2)CC1` (centres undefined) gave HepG2 viability -9.8%.
O=[N+]([O-])c1cccc(C2=NC(c3ccccc3)CO2)c1 (centres undefined) was read as HepG2 viability -7.1%.
`CC(C)NC(=O)c1cc(-c2ccc3c(c2)OCO3)on1` gave HepG2 viability -22.1%.
Screening COC(=O)c1c(-c2ccc(SC)cc2)sc2ccc(OC)cc12 returned HepG2 viability 1.9%.
Screening COc1ccc(NC(=O)c2cc(C)on2)cc1 returned HepG2 viability 0.3%.
Screening O=C(Nc1ccc2ccccc2c1)c1cccc(F)c1 returned HepG2 viability -6.4%.
CCc1nc2oc3ccccc3c(=O)c2c(=O)n1-c1ccccc1 was read as HepG2 viability -8.1%.
Brc1ccsc1/C=N/Nc1ccccc1 was read as HepG2 viability -5.8%.
For COc1cccc(/C=C2\N=C3CCCCCN3C2=O)c1 the results were HepG2 viability 36.0%.
Screening CCCCOC(=O)Nc1ccc(N2CCCCC2)cc1 returned HepG2 viability -3.3%.
Screening Cc1cc(-c2nc3cc(F)ccc3s2)ccc1N returned HepG2 viability 0.55µM*.
`Cc1cc(N2CCCCC2)nc2ccc(NC(=O)CCC(=O)NCCC(C)C)cc12` gave HepG2 viability -18.6%.
O=C(Nc1ccc2ccccc2n1)C1CCCCC1 was read as HepG2 viability -10.0%.
COC(=O)c1ccc(CN2CCCC(CNC(=O)Cc3ccc(OC)cc3)C2)cc1 (centres undefined) was read as HepG2 viability -5.4%.
Screening O=C(/C=C/c1ccco1)Nc1nc(-c2ccccc2)cs1 returned HepG2 viability -19.8%.
Cc1csc(NC(=O)c2ccc(N3CCCC3=O)cc2)n1 was read as HepG2 viability -16.3%.
`COc1ccccc1NC(=O)c1cnc(SCC(=O)NCC2CCCO2)n(C)c1=O` (centres undefined) gave HepG2 viability 42.4µM*.
CCCC(=O)Nc1nc(-c2ccccc2)ns1 was read as HepG2 viability -2.1%.
Screening O=C(NN=Cc1ccccc1Cl)c1ccccc1 returned HepG2 viability -1.3%.
Clc1cccc(-c2ccc3ncnc(NCc4cccs4)c3c2)c1 was read as HepG2 viability -19.9%[12 µM].
`Oc1cccc(/C=N/Nc2ccc(Cl)nn2)c1O` gave HepG2 viability 20.4µM*.
For O=C(NCCc1ccccc1)c1cc(-c2ccco2)on1 the results were HepG2 viability 26µM*.
`COc1ccc(-c2ccc(NC(=O)c3ccc(Br)o3)cc2)nn1` gave HepG2 viability -27.3%.
`CCN(CC)C(=O)CSc1ncnc2c1cnn2-c1ccccc1` gave HepG2 viability -21.8%.
`COc1ccc(CNc2ccc(Br)cc2)cc1` gave HepG2 viability -5.8%.
`Cc1cccc(N=c2oc3cc(O)ccc3cc2C(N)=O)c1` gave HepG2 viability -14.3%.
Screening CCc1c(C)nc2cc(-c3cccc(Br)c3)[nH]n2c1=O returned HepG2 viability -13.9%.
Screening Cc1cccc(N2CCN(c3cccc(C)c3)C2c2cccnc2)c1 returned HepG2 viability -13.9%.
Screening Nc1ccc(N=Nc2ccccc2Cl)c(N)n1 returned HepG2 viability -11.0%.
COCCNC(=O)c1ccc2c(Cl)c3c(nc2c1)CCC3 was read as HepG2 viability -8.3%.
`CN(C)c1ccc(/C=C/c2ccncc2)cc1` gave HepG2 viability -1.2%.
`C/C(=N\O)c1sc(-c2ccccc2)nc1C` gave HepG2 viability 5.5%.
Screening c1ccc(-c2cc(-c3ccccc3)on2)cc1 returned HepG2 viability -7.3%.
O=C(Nc1ccc2c(c1)OCO2)c1ccccn1 was read as HepG2 viability -28.9%.
`O=C(O)c1ccccc1NN=Cc1ccccc1` gave HepG2 viability -5.1%.
Screening CCNS(=O)(=O)c1ccc2nc(NC(=O)/C=C/c3cc(OC)c(OC)c(OC)c3)sc2c1 returned HepG2 viability -1.1%.

Overlap with the part before: 2 entries; new compounds follow.
`O=C(O)c1ccccc1NN=Cc1ccccc1` gave HepG2 viability -5.1%.
Screening CCNS(=O)(=O)c1ccc2nc(NC(=O)/C=C/c3cc(OC)c(OC)c(OC)c3)sc2c1 returned HepG2 viability -1.1%.
For CC1CCC(=O)N(CCSc2ccccc2)CC1 (centres undefined) the results were HepG2 viability -2.7%.
`N/C(=N\OC(=O)c1ccc(Cl)cc1)c1ccn[nH]1` gave HepG2 viability 4.3%.
For COc1ccc(-c2csc(-n3cccn3)n2)cc1 the results were HepG2 viability 58.1%.
`O=C(N/N=C/c1c[nH]c2ccccc12)c1cccs1` gave HepG2 viability 13.9%.
For O=C(CN(C(=O)Cn1nnc(-c2ccc(F)cc2)n1)c1ccc(F)c(Cl)c1)NCC1CCCO1 (centres undefined) the results were HepG2 viability -3.2%.
For CN(C)c1ccc(/C=N/NC(=O)CSc2ccccn2)cc1 the results were HepG2 viability -11.8%.
Cc1[nH]n(-c2ccccc2)c(=O)c1N=Nc1ccc2c(c1)OCCO2 was read as HepG2 viability -2.9%.
Cc1ccc(NC(=O)c2cc3ccccc3o2)nc1 was read as HepG2 viability -19.0%.
For Cc1c(C(=O)Nc2ccc(Br)cc2)cnn1C the results were HepG2 viability -2.5%.
Fc1ccccc1-c1nc(-c2ccncc2)no1 was read as HepG2 viability -9.7%.

6 successive entries from above, quoted:
`O=C(N/N=C/c1c[nH]c2ccccc12)c1cccs1` gave HepG2 viability 13.9%.
For O=C(CN(C(=O)Cn1nnc(-c2ccc(F)cc2)n1)c1ccc(F)c(Cl)c1)NCC1CCCO1 (centres undefined) the results were HepG2 viability -3.2%.
For CN(C)c1ccc(/C=N/NC(=O)CSc2ccccn2)cc1 the results were HepG2 viability -11.8%.
Cc1[nH]n(-c2ccccc2)c(=O)c1N=Nc1ccc2c(c1)OCCO2 was read as HepG2 viability -2.9%.
Cc1ccc(NC(=O)c2cc3ccccc3o2)nc1 was read as HepG2 viability -19.0%.
For Cc1c(C(=O)Nc2ccc(Br)cc2)cnn1C the results were HepG2 viability -2.5%.

Further records follow:
`COc1ccccc1C(=O)Nc1nnc(SCC(=O)Nc2ccc3c(c2)oc2ccccc23)s1` gave HepG2 viability -6.2%.
For Cc1cc([N+](=O)[O-])ccc1NC(=O)/C=C/c1cccs1 the results were HepG2 viability -6.8%.
Screening Clc1ccc(-c2nc(-c3ccncc3)no2)c(Cl)c1 returned HepG2 viability -12.3%.
For O=C(Nc1nc(-c2nc3ccccc3s2)cs1)C1CC1 the results were HepG2 viability -14.7%.
For O=C(Nc1ccc(NC(=O)c2cccs2)cn1)c1ccccc1 the results were HepG2 viability -11.4%[6 µM].
`Oc1ccccc1-c1nnc(COc2ccc(Cl)cc2Cl)o1` gave HepG2 viability 12.7%.
For COC(=O)C1CCN(C(=O)c2oc3c(Cl)cc(C)cc3c2C)CC1 the results were HepG2 viability 1.3%.
Cc1ccc2nc(-c3ccccc3)c(Cc3cccc(Cl)c3)n2c1 was read as HepG2 viability -21.3%.
Cc1ccc(NC(=O)CN(C)C(=O)CCOc2cccc(C)c2)cc1 was read as HepG2 viability -2.9%.
Screening Cc1ccc(C)c(OCc2cc(C(=O)N3C[C@@H](C)O[C@@H](C)C3)no2)c1 returned HepG2 viability -5.9%.
Cc1ccc(OCc2ccc(Br)cc2)c([N+](=O)[O-])n1 was read as HepG2 viability -7.5%.
`CCC(=O)Nc1nnc(/C=C/c2ccc(OC)cc2)s1` gave HepG2 viability 28.4%.
NC(=O)N/N=C(/CCCCCC/C(=N\NC(N)=O)c1ccccc1)c1ccccc1 was read as HepG2 viability -13.5%.
Screening Cc1sc2c(c1C)C(=O)/C(=C\Nc1ccncc1)S(=O)(=O)N2C returned HepG2 viability -8.9%.
`COc1ccc2oc(C(=O)Nc3ccc(C)cn3)c(C)c2c1` gave HepG2 viability -3.9%.
For Cc1[nH]c2ccccc2c1/C=N/Nc1nc2ccccc2[nH]1 the results were HepG2 viability 26µM*.
O=C(CSc1nnc(C2CC2)n1C1CC1)c1ccc(Br)s1 was read as HepG2 viability -1.5%.
For CC(=O)Nc1ccc(-c2ccnc3c2CC(C)(C(=O)NC(C)C)O3)cc1 (centres undefined) the results were HepG2 viability 11.9%.
Screening Cc1ccc(SCc2cn3ccccc3n2)cc1 returned HepG2 viability -13.6%.
`Cc1ccc(-c2csc(N3C(=N)SCC3=O)n2)cc1` gave HepG2 viability 0.9%.
Fc1ccc2cc(-c3ccccc3)ncc2c1 was read as HepG2 viability -11.4%.
Cc1nnc(SCC(=O)c2ccc(Cl)cc2)n(N)c1=O was read as HepG2 viability -12.4%.
For N/C(=N\OC(=O)c1cccs1)c1cccc(Br)c1 the results were HepG2 viability -8.3%.
Screening Cc1ccc(C)c(NC(=O)c2ccccc2NC(=O)C2CCCO2)c1 (centres undefined) returned HepG2 viability -12.3%.
`CC(=O)Nc1cnc(-c2ccc3c(c2)OCO3)cn1` gave HepG2 viability -13.5%.
`CC(C)(C)c1ccc(-c2nnc(N)o2)cc1` gave HepG2 viability 6.0%.
Cc1ccc(NC(=O)c2cnc3ccccc3n2)cc1C was read as HepG2 viability -16.6%.
O=C(c1ccccc1)c1nnc(-c2ccccc2F)o1 was read as HepG2 viability -7.5%.
CCn1nnc(NC(=O)c2ccc(C(C)(C)C)cc2)n1 was read as HepG2 viability 17.4%.
O=c1oc2ccccc2nc1/C=C(\O)c1ccccc1 was read as HepG2 viability -16.1%.
Screening CCN(CC)C(=O)C1CCN(Cc2cn(C)nc2-c2ccc(Oc3ccccc3)cc2)CC1 returned HepG2 viability 4.7%.
Screening O=c1[nH]c2ccccc2nc1-c1cccs1 returned HepG2 viability -22.0%.
Screening CC1CCN(C(=O)c2ccc(-c3ccccc3Cl)o2)CC1 returned HepG2 viability -6.1%.
For COc1ccc(NC(=O)c2cc(F)cc(F)c2)cc1Cl the results were HepG2 viability -5.5%.
`COc1ccc2nc(NC(=O)c3c(C)noc3C)sc2c1` gave HepG2 viability -8.1%.
For CCOc1nc(N2CCOCC2)nc(C)c1[N+](=O)[O-] the results were HepG2 viability -9.3%.
CCOC(=O)N/N=C\c1ccccc1OC/C=C/c1ccccc1 was read as HepG2 viability -10.6%.
For CCCCn1c(SCC2CCCCO2)nc2cc(S(N)(=O)=O)ccc21 (centres undefined) the results were HepG2 viability -22.6%.
C/C(=C\c1ccccc1)C(=O)Nc1ccc(Cl)cn1 was read as HepG2 viability -6.3%.
`COc1cccc(CSc2nc3ccccc3[nH]2)c1` gave HepG2 viability -24.8%.
Screening C=CCc1ccccc1OCC(=O)O returned HepG2 viability -11.4%.
Screening O=C(Nc1ccc(F)c(Cl)c1)c1ccccc1 returned HepG2 viability -28.6%.
O=C(c1ccc(Cl)c([N+](=O)[O-])c1)N(Cc1ccc(Cl)cc1)C1CCS(=O)(=O)C1 (centres undefined) was read as HepG2 viability -4.5%.
CC(=O)n1nc(-c2ccccc2)cc1-c1ccccc1 was read as HepG2 viability -14.2%.
For O=C(Nc1ccc2ccccc2n1)c1ccc(Cl)cc1 the results were HepG2 viability -7.9%.

These rows are one share of the data (hit frequency here may not be typical).
